MITF inh = MITF inhibition; TRPM1 promoter luciferase, luminescence, 24 h; inhibition, % (no concentration beside the values); hit rate 0.28% among 37,000;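 active = most replicates at 85% or more, or half of them and the mean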;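 note: human melanocyte line stably carrying TRPM1 promoter luciferase reporter; 0% = vehicle wells and 100% = a positive control; the first replicate is given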
YB-1 expression = YB-1 expression inhibition; U2OS, qRT-PCR YB-1 vs CDIP delta delta Cp, 16 h; stronger effect = higher value; zero = DMSO, each unit about twofold; hit rate 0.37% among 30,000; delta delta Cp (YB-1 minus CDIP) (no concentration beside the values);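 active = delta delta Cp rounded down to an integer at or above 3, about 3 SD of DMSO wells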;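 note: higher means less YB-1 transcript or more CDIP transcript relative to DMSO; stock transfer was 100 nL into about 100 µL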
Hedgehog inh = Sonic Hedgehog pathway inhibition; hit rate 2.1% among 22,000; inhibition, % (test concentration not listed); AID 2313; Shh-LIGHT2 Gli-luciferase reporter, 30 h;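 active = replicate mean of 65% or more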;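 note: pathway switched on by Shh-conditioned medium diluted 1 in 25 in low serum; 100 nL library stock added to about 40 µL; 0% = median of neutral wells and 100% = positive control level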
PD-1 reverse act = activators reversing PD-1 mediated T-cell inhibition; activation, % (concentration not given with the values); AID 2316; 29,000 tested, under 10 active; primary human CD4 T cells, PD-L1 beads, CellTiter-Glo 96 h;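 active = replicate mean of 50% or more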;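 note: 0% = median vehicle wells and 100% = positive control; 100 nL library stock added to about 50 µL; numbers are from one replicate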
Starred values were filed as active, the others as inactive; · = no result given. Some of the compounds tested; rates above refer to the full screens.

compound	Hedgehog inh	PD-1 reverse act	MITF inh	YB-1 expression
CN1CCN(C2=Nc3ccccc3Oc3ccc(Cl)cc32)CC1	37	0.0	3	0.21
C[C@H]1CN([C@@H](C)CO)C(=O)Cc2cc(N(C)C)ccc2O[C@H]1CN(C)S(=O)(=O)c1cn(C)cn1	·	0.3	-2	-0.33
COc1ccc(C(=O)CSc2nnc(-c3ccc([N+](=O)[O-])cc3)o2)cc1	·	0.3	-17	·
C[C@@H]1CN([C@@H](C)CO)C(=O)c2cccc(NC(=O)c3nc4ccccc4s3)c2O[C@@H]1CN(C)Cc1ccc(Oc2ccccc2)cc1	-115	-3.6	2	0.36
COc1ccc(S(=O)(=O)N(C)CC(=O)Nc2cc([N+](=O)[O-])ccc2C)cc1	·	1.4	14	·
C[C@@H]1CN([C@H](C)CO)C(=O)c2cc(NC(=O)CCCCCC(=O)Nc3ccccc3N)ccc2O[C@H]1CN(C)S(=O)(=O)c1ccc(Cl)cc1	·	-0.5	9	0.45
CC(C)c1ccc(Nc2nnns2)cc1	-10	-8.0	12	-0.48
C[C@@H]1CN([C@H](C)CO)C(=O)c2cccc(NC(=O)C3CCOCC3)c2O[C@@H]1CN(C)C(=O)Nc1ccc(C(F)(F)F)cc1	2	2.4	-2	0.14
C[C@@H]1CN([C@@H](C)CO)C(=O)Cc2cc(NC(=O)Nc3ccc4c(c3)OCO4)ccc2O[C@@H]1CN(C)C(=O)Nc1ccccc1	-28	·	-3	0.18
C[C@H]1CN([C@@H](C)CO)C(=O)Cc2cc(NS(=O)(=O)c3ccccc3)ccc2O[C@H]1CN(C)S(=O)(=O)c1cccs1	-2	0.7	-10	-0.17
C[C@H](CO)N1C[C@H](C)[C@@H](CN(C)S(=O)(=O)c2ccc(F)cc2)Oc2ccc(NC(=O)Nc3ccc(F)cc3)cc2C1=O	3	0.4	-12	0.013
C[C@H](CO)N1C[C@H](C)[C@@H](CN(C)Cc2ccc3c(c2)OCO3)Oc2ccc(NS(=O)(=O)c3ccc(F)cc3)cc2C1=O	·	-0.9	-2	-0.046
C[C@H]1CN([C@@H](C)CO)C(=O)c2cccc(NS(=O)(=O)c3cccs3)c2O[C@H]1CN(C)CC1CCCCC1	-14	·	-12	-0.62
C[C@@H]1CN([C@H](C)CO)C(=O)c2cc(NC(=O)NC3CCCCC3)ccc2O[C@@H]1CN(C)C(=O)Nc1ccc(F)cc1	15	·	-6	0.083
C[C@@H]1CN([C@H](C)CO)C(=O)c2cccc(NC(=O)Nc3ccc(C(F)(F)F)cc3)c2O[C@H]1CN(C)C	-14	-3.7	20	-0.53

Filtered by structure, those above with a Cl atom (2)
compound	Hedgehog inh	PD-1 reverse act	MITF inh	YB-1 expression
CN1CCN(C2=Nc3ccccc3Oc3ccc(Cl)cc32)CC1	37	0.0	3	0.21
C[C@@H]1CN([C@H](C)CO)C(=O)c2cc(NC(=O)CCCCCC(=O)Nc3ccccc3N)ccc2O[C@H]1CN(C)S(=O)(=O)c1ccc(Cl)cc1	·	-0.5	9	0.45

The list goes on:
compound	Hedgehog inh	PD-1 reverse act	MITF inh	YB-1 expression
CCOc1ccc(NC(=O)C(C)Sc2nnc(C)n2-c2ccccc2)cc1 (configuration not stated)	·	-0.7	5	·
Cc1noc(C)c1NC(=O)Nc1ccc2c(c1)C(=O)N([C@@H](C)CO)C[C@@H](C)[C@@H](CN(C)C(=O)Nc1cccc3ccccc13)O2	-23	0.0	-8	-0.22
CC(=O)O[C@@H]1c2c(ccc3ccc(=O)oc23)OC(C)(C)[C@@H]1OC(=O)C=C(C)C	19	2.9	-14	-0.091
c1ccc(-n2c(SCc3nc4ccccc4s3)nnc2-c2cccs2)cc1	·	-3.3	35	·
Cc1sc2ncn(CC(=O)NCc3ccco3)c(=O)c2c1-c1ccc(Cl)cc1	·	0.4	2	·
O=C(CSc1ncnc2sc3c(c12)CCCCC3)NCc1ccco1	·	-2.2	20	·
COC(=O)CCC(=O)NC(=S)Nc1ccccc1F	·	1.4	-20	·
COc1ccc([N+](=O)[O-])cc1NC(=O)CCC1COc2ccccc2O1 (configuration not stated)	·	0.4	3	·
C[C@@H]1CN([C@H](C)CO)C(=O)Cc2cc(NS(=O)(=O)c3ccccc3)ccc2O[C@H]1CN(C)Cc1ccc(C(=O)O)cc1	-1	0.8	-3	0.18
Cc1noc(C)c1S(=O)(=O)Nc1ccc2c(c1)C(=O)N([C@H](C)CO)C[C@H](C)[C@@H](CN(C)C(=O)Nc1ccc(F)cc1)O2	20	1.6	1	0.11
C[C@H]1CN([C@@H](C)CO)C(=O)c2cc(NS(=O)(=O)c3cccs3)ccc2O[C@H]1CN(C)Cc1ccc(C(F)(F)F)cc1	·	-1.8	-16	-0.22
CCOC(=O)c1ccc(NC(=O)C(C)Sc2nc3ccccc3[nH]2)cc1 (configuration not stated)	·	-1.3	-18	·
CNC[C@@H]1Oc2ccc(NC(=O)Nc3ccc(F)cc3)cc2CC(=O)N([C@@H](C)CO)C[C@@H]1C	-7	1.7	-12	0.14
C[C@@H]1CN([C@@H](C)CO)C(=O)c2cc(NC(=O)Cc3cn(C)c4ccccc34)ccc2O[C@@H]1CN(C)Cc1ccc(C(=O)O)cc1	-9	-0.7	6	-0.11
COc1ccc(S(=O)(=O)Nc2ccc3c(c2)C(=O)N([C@H](C)CO)C[C@H](C)[C@@H](CN(C)Cc2ccc4c(c2)OCO4)OCCCC[C@@H](C)O3)cc1	·	·	-4	-0.17

New compounds follow.
compound	Hedgehog inh	PD-1 reverse act	MITF inh	YB-1 expression
C[C@H]1CN([C@@H](C)CO)C(=O)c2cccc(NC(=O)Nc3ccccc3)c2O[C@H]1CN(C)C(=O)NC1CCCCC1	-11	-1.3	17	-0.34
Cc1cc(N(CC(=O)Nc2ccc(F)cc2)S(C)(=O)=O)ccc1Br	·	-1.9	-6	·
Cc1cc(C)cc(-n2c(C)cc(/C=C3\SC(=O)NC3=O)c2C)c1	·	-0.5	7	-0.053
Cc1noc(C)c1NC(=O)Nc1cccc2c1O[C@@H](CN(C)C(=O)Nc1c(C)noc1C)[C@@H](C)CN([C@H](C)CO)C2=O	14	0.5	-7	0.22
Cc1cc(I)ccc1NC(=O)Cn1c([N+](=O)[O-])cnc1C	·	0.6	16	·
C[C@@H]1CN([C@H](C)CO)C(=O)c2cc(NS(=O)(=O)c3cccs3)ccc2O[C@H]1CN(C)Cc1ccc(Cl)c(Cl)c1	·	1.6	6	-0.85
CCOC(=O)c1cnc2c(cnn2CC)c1NN=C(C)C	-36	-1.3	-12	4.9*
C[C@@H]1CN([C@H](C)CO)C(=O)Cc2cc(NC(=O)Cc3ccccc3)ccc2O[C@H]1CN(C)Cc1ccc(C(=O)Nc2ccccc2N)cc1	·	1.4	-13	-0.21
C[C@H]1CN([C@@H](C)CO)C(=O)c2cc(NS(=O)(=O)c3ccc(Cl)cc3)ccc2O[C@H]1CN(C)S(=O)(=O)c1ccc(F)cc1	·	-1.5	-5	-0.61
C[C@H]1CN([C@@H](C)CO)C(=O)Cc2cc(NS(=O)(=O)c3cn(C)cn3)ccc2O[C@H]1CN(C)S(C)(=O)=O	6	1.0	-13	-0.11
COc1ccc(S(=O)(=O)Nc2ccc3c(c2)C(=O)N([C@H](C)CO)C[C@H](C)[C@H](CN(C)S(=O)(=O)c2cn(C)cn2)OCCCC[C@@H](C)O3)cc1	-4	·	-3	-0.12
C[C@H](CO)N1C[C@H](C)[C@H](CN(C)Cc2ccccc2)Oc2ccc(NC(=O)Nc3cccc4ccccc34)cc2CC1=O	20	0.8	10	0.13
COc1ccc(Cl)cc1NC(=S)NCc1ccc(S(N)(=O)=O)cc1	·	-1.1	9	·
O=S(=O)(N1CCOCC1)n1c(Cc2ccccc2)nc2ccccc21	·	-1.7	2	·
Cc1ccc(NC(=O)CN(c2cccc(F)c2)S(C)(=O)=O)cc1Cl	·	-0.9	13	·

Continued:
compound	Hedgehog inh	PD-1 reverse act	MITF inh	YB-1 expression
Cc1noc(C)c1NC(=O)Nc1ccc2c(c1)C(=O)N([C@@H](C)CO)C[C@H](C)[C@H](CN(C)Cc1ccc(-c3ccccc3)cc1)O2	-6	-2.0	-4	-0.35
CS/C(NCC1CC1)=C(/C#N)C(=O)c1ccc(Cl)cc1	·	-7.2	46	-0.47
C[C@@H]1CN([C@@H](C)CO)C(=O)c2cc(NC(=O)CCCN(C)C)ccc2O[C@H]1CN(C)Cc1ccc(Cl)c(Cl)c1	4	-0.2	-6	0.18
Cc1noc(C)c1NC(=O)Nc1ccc2c(c1)C(=O)N([C@@H](C)CO)C[C@@H](C)[C@@H](CN(C)Cc1ccccc1)O2	·	-0.2	-1	0.22
CC(C)NC(=O)N(C)C[C@@H]1Oc2ccc(NC(=O)C3CC3)cc2C(=O)N([C@H](C)CO)C[C@H]1C	-8	0.8	-4	0.27
C[C@@H]1CN([C@@H](C)CO)C(=O)c2cccc(NS(=O)(=O)c3ccc(Cl)cc3)c2O[C@H]1CN(C)S(=O)(=O)c1cn(C)cn1	4	0.5	1	0.96
COC(=O)CC1C(=O)NCCN1C(=O)OC(C)(C)C (configuration not stated)	·	0.5	0	0.36
CC1CCC2(C)C(CC(O)C(O)C2(O)CO)C1(C)CCc1ccoc1 (configuration not stated)	-3	1.4	-14	-0.44
Cc1noc(C)c1NC(=O)N(C)C[C@@H]1OCCCC[C@@H](C)Oc2ccc(NC(=O)c3ccccc3)cc2C(=O)N([C@H](C)CO)C[C@@H]1C	-12	0.5	-6	-0.55
C[C@H]1CN([C@@H](C)CO)C(=O)Cc2cc(NC(=O)Cn3cnnn3)ccc2O[C@@H]1CN(C)S(=O)(=O)c1ccccc1	-11	1.0	-3	0.17
Cc1noc(C)c1S(=O)(=O)N(C)C[C@@H]1Oc2ccc(NS(=O)(=O)c3ccccc3)cc2C(=O)N([C@@H](C)CO)C[C@@H]1C	·	-1.3	-14	-0.16
C[C@@H]1CN([C@@H](C)CO)C(=O)Cc2cc(NS(=O)(=O)c3ccc(F)cc3)ccc2O[C@@H]1CN(C)Cc1ccc(C(=O)O)cc1	-40	-0.9	-9	-0.11
Cc1noc(C)c1S(=O)(=O)Nc1ccc2c(c1)C(=O)N([C@@H](C)CO)C[C@H](C)[C@@H](CN(C)S(C)(=O)=O)O2	·	0.6	-2	-0.36
C[C@@H]1CN([C@@H](C)CO)C(=O)c2cc(NC(=O)Cn3cnnn3)ccc2O[C@@H]1CN(C)CC1CCCCC1	-13	0.9	-2	0.066
Cc1noc(C)c1NC(=O)Nc1ccc2c(c1)C(=O)N([C@@H](C)CO)C[C@@H](C)[C@H](CN(C)S(=O)(=O)c1cccs1)O2	-17	1.3	11	-0.094

(continued)
compound	Hedgehog inh	PD-1 reverse act	MITF inh	YB-1 expression
CNC[C@@H]1OCCCC[C@@H](C)Oc2ccc(NC(=O)C3CCCCC3)cc2C(=O)N([C@H](C)CO)C[C@@H]1C	39	1.7	-20	0.089
O=C1NC(=O)c2cc(-c3ccccc3)ccc21	-22	0.4	-15	0.23
COc1ccc(S(=O)(=O)Nc2cccc3c2O[C@@H](CN(C)S(=O)(=O)c2ccc(C)cc2)[C@@H](C)CN([C@@H](C)CO)C3=O)cc1	7	1.2	19	-0.12
Cc1nc(SCC(=O)Nc2ccc(Oc3ccccc3)cc2)n[nH]1	·	1.6	-12	·
CC(C)NC(=O)Nc1cccc2c1O[C@H](CN(C)CC1CC1)[C@@H](C)CN([C@H](C)CO)C2=O	8	1.5	1	0.54
C[C@H]1CN([C@@H](C)CO)C(=O)c2cc(NS(=O)(=O)c3ccc(F)cc3)ccc2O[C@@H]1CN(C)S(=O)(=O)c1ccc(Cl)cc1	17	0.3	-19	-0.4
C[C@@H]1CN([C@@H](C)CO)C(=O)c2cccc(NC(=O)c3cnccn3)c2O[C@H]1CN(C)Cc1ccc(C(=O)O)cc1	8	0.4	2	0.91
Cc1ccc(S(=O)(=O)Nc2ccc3c(c2)C(=O)N([C@H](C)CO)C[C@@H](C)[C@@H](CN(C)Cc2ccc(C(=O)O)cc2)O3)cc1	-27	0.9	10	0.26
CC(C)NC(=O)Nc1ccc2c(c1)CC(=O)N([C@@H](C)CO)C[C@H](C)[C@@H](CN(C)CC1CC1)O2	-25	·	-1	0.064
C[C@@H]1CN([C@H](C)CO)C(=O)Cc2cc(NS(=O)(=O)c3ccc(Cl)cc3)ccc2O[C@@H]1CN(C)Cc1ccc(C(=O)O)cc1	·	0.1	-11	0.082
COc1ccc(S(=O)(=O)Nc2cccc3c2O[C@H](CN(C)Cc2ccc(C(=O)Nc4ccccc4N)cc2)[C@H](C)CN([C@H](C)CO)C3=O)cc1	·	-1.1	7	-0.35
C[C@@H]1CCCCO[C@H](CN(C)C(=O)Nc2ccc(C(F)(F)F)cc2)[C@@H](C)CN([C@H](C)CO)C(=O)c2cc(NS(=O)(=O)c3ccc(F)cc3)ccc2O1	31	·	41	-0.092

Results in YB-1 expression and MITF inh, for 3 of the compounds above:
structure	YB-1 expression	MITF inh
C[C@@H]1CN([C@@H](C)CO)C(=O)c2cccc(NC(=O)c3cnccn3)c2O[C@H]1CN(C)Cc1ccc(C(=O)O)cc1	0.91	2
CNC[C@@H]1OCCCC[C@@H](C)Oc2ccc(NC(=O)C3CCCCC3)cc2C(=O)N([C@H](C)CO)C[C@@H]1C	0.089	-20
O=C1NC(=O)c2cc(-c3ccccc3)ccc21	0.23	-15

Source: PubChem
